# Source: PubChem BioAssay (Southern Research Institute)
# Mtb H37Rv – Confirmatory growth inhibition assay against Mycobacterium tuberculosis H37Rv, potency (AID 1949). most inactive calls were filed without a number and no value below 0 was filed. one-dose inhibition, % at 10 µg/mL; IC50 in µg/mL for titrated hits. hit rate 1.6% among 100,000;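 active = confirmed in a dose series; inconclusive = about 50% or more but not retested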;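 also: bacteria grown 7 days with compound before Alamar blue readout; 0% = untreated bacteria and 100% = reference antibiotic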
# Active calls of the source: *; i = inactive; u = inconclusive.
item	SMILES	Mtb H37Rv
1	CC(C)CNC(=O)c1cccc(NC(=O)C(F)(F)F)c1	i
2	Cc1ccc(-c2nc(C#N)c(NCCCn3ccnc3)o2)cc1	i
3	c1ccc(Nc2nc(N3CCNCC3)nc(N3CCOCC3)n2)cc1	5%
4	O=C(NCc1ccccc1)c1cnsn1	i
5	N#CCCn1cc(C(=O)N2CCCCC2)c(-c2cccc(Br)c2)n1	i
6	COc1ccc2c(c1)CC1=C2CCC2(C)C1=CCC2OC(C)=O (stereo not drawn)	22µg/mL*
7	CCOC(=O)CC(O)(c1ccccc1)C(F)(F)C(F)F (stereo not drawn)	i
8	O=C(Nc1ccc2snnc2c1)N1CCCCC1	i
9	Cc1cc(C)nc(NS(=O)(=O)c2ccc(NC(=O)c3ccc4c(c3)OCO4)cc2)n1	i
10	Cc1cc(C)n(C(=O)C(C)N2C(=O)c3ccccc3C2=O)n1 (stereo not drawn)	i
11	COc1cc(NC(=S)NC2CC(C)(C)NC(C)(C)C2)c(OC)cc1Cl	i
12	COCCCNC(=O)c1cccc(C)c1	i
13	Cn1c(SCC(=O)N2CCCC2)nnc1-c1ccncc1	i
14	CC1CCc2sc(N3C(=O)C4C5C=CC(C5)C4C3=O)c(C#N)c2C1 (stereo not drawn)	i
15	O=C(Nc1ccc(O)cc1)c1ccc(F)c(S(=O)(=O)N2CCCCC2)c1	7%
16	O=C(Nc1ccc(F)cc1)C1CCCC1	i
17	COC(=O)c1c(C)oc2ccc(NS(=O)(=O)c3ccc(C)cc3)cc12	i
18	CS(=O)(=O)N(CC(=O)Nc1cccc2ccccc12)c1ccccc1F	i
19	C=CCN(CC=C)S(=O)(=O)c1ccc(NC(=O)COc2ccccc2)cc1	i
20	O=C(NC(=S)Nc1ccccc1N1CCCCC1)c1ccccc1	30%

# Continued, starting with the last 3 of the part before.
item	SMILES	Mtb H37Rv
18	CS(=O)(=O)N(CC(=O)Nc1cccc2ccccc12)c1ccccc1F	i
19	C=CCN(CC=C)S(=O)(=O)c1ccc(NC(=O)COc2ccccc2)cc1	i
20	O=C(NC(=S)Nc1ccccc1N1CCCCC1)c1ccccc1	30%
21	CCOc1ccc(C(=O)Nc2nc(-c3ccc(OC)c(Br)c3)cs2)cc1	i
22	O=S(=O)(Cc1ccccc1)c1nc2ccccc2n1Cc1ccc(Cl)cc1	i
23	Cc1ccc2nc(-c3cc(NC(=S)NC(=O)COc4ccccc4Cl)ccc3Cl)oc2c1	i
24	COc1ccc(Br)cc1C(=O)Nc1cc(Cl)ccc1C(=O)O	2%
25	Cc1ccc(S(=O)(=O)NNC(=O)COc2ccccc2)cc1	i
26	O=C(c1ccccc1)c1ccc(N2CCNCC2)cc1	i
27	Cc1ccc(S(=O)(=O)N(CC(=O)N2CCN(C)CC2)c2cccc(Br)c2)cc1	i
28	CC1=NN(C(=O)c2ccccc2)C(O)(c2ccncc2)C1 (stereo not drawn)	<0.1µg/mL*
29	COc1ccc(N(CC(=O)Nc2cccnc2)S(=O)(=O)c2ccccc2)cc1Cl	i
30	Cc1ccc(C(=O)Nc2ccccc2C(N)=O)c(C)c1	i
31	COCCCNc1oc(-c2ccccc2F)nc1C#N	i
32	Cc1cc(OCC(=O)Nc2cccc(Cl)c2C)cc(C)c1Br	i
33	N#CCc1ccc(NC(=O)CCCOc2ccc(Cl)cc2Cl)cc1	i
34	O=C(Nc1c(C(=O)N2CCCCC2)cnn1-c1ccccc1)c1ccccc1F	i
35	O=[N+]([O-])c1cc(-c2nnc(-c3ccccc3)o2)ccc1N1CCCCCC1	3%
36	CCc1ccc(NC(=O)C2CCN(S(C)(=O)=O)CC2)cc1	i
37	CN(c1ccc(C(=O)NCCSC(C)(C)C)cc1)S(=O)(=O)c1ccc(Cl)cc1	i
38	O=C(NC1CCS(=O)(=O)C1)c1ccc(Br)cc1 (stereo not drawn)	i
39	Cc1ccc(S(=O)(=O)NCCSc2nncn2C)cc1	i
40	O=c1cc(-c2cccs2)oc2ccccc12	i
41	Cc1cccc(NC(=S)NCC2CCCO2)c1C (stereo not drawn)	i
42	COc1ccc(-c2csc(NC(=O)c3ccc(C)o3)n2)cc1	4%
43	COc1ccc(OCc2nnc(SCC(=O)NCc3ccccc3)n2C)cc1	i
44	O=c1c2c(-c3ccc(Br)cc3)csc2ncn1Cc1ccccc1F	0%
45	CCOC(=O)c1c(-c2ccc(Br)cc2)csc1NC(C)=O	i
46	O=C(NCc1cccnc1)C(=O)Nc1ccccc1F	0%
47	O=C(OCc1ccc(Br)cc1)c1cccnc1	2%
48	Cc1sc2ncn(CCCc3ccccc3)c(=O)c2c1C	i
49	Cc1cc2ncn(Cc3ccccc3F)c2cc1C	6%
50	CCOc1ccccc1N1CCN(C(=O)c2ccc(C(C)(C)C)cc2)CC1	i
51	Cn1c(=O)c2c(nc(Oc3ccc(F)cc3)n2Cc2ccc(F)cc2)n(C)c1=O	i
52	Cc1cccc(OCCN2CCNCC2)c1C	i
53	Brc1ccc2ncnc(NCc3ccco3)c2c1	8%
54	CCn1c(Sc2c(-c3ccccc3)c3cc([N+](=O)[O-])ccc3[nH]c2=O)nnc1-c1ccccc1	i
55	Cc1nnc2sc(-c3ccc(NC(=O)c4ccc(F)cc4)cc3)nn12	4%
56	NS(=O)(=O)c1ccc(NC(=O)CN2CCN(Cc3ccccc3)CC2)cc1	i
57	CC(NC(=O)c1ccc(NC(=O)C2COc3ccccc3O2)cc1)c1ccccc1 (stereo not drawn)	7%
58	COC(=O)C1=C(C)NC(=O)NC1/C=C/c1ccccc1 (stereo not drawn)	i
59	O=C1CC(c2ccccc2F)c2cc3c(cc2N1)OCCO3 (stereo not drawn)	8%
60	O=C(Nc1c(Cl)cccc1Cl)C1C2CC/C=C\CC/C=C/CCC21 (stereo not drawn)	i
61	CCCN1CCN(C(=O)c2cc(OC)c(OC)c(OC)c2)CC1	i
62	COC(=O)c1ccc(OC(=O)CS(=O)c2ccccc2[N+](=O)[O-])cc1 (stereo not drawn)	i
63	CCOC(=O)c1ccc(N2C(=O)CC(N3CCC(c4nc5ccccc5o4)CC3)C2=O)cc1 (stereo not drawn)	i
64	O=C(CC12CC3CC(CC(C3)C1)C2)Nc1ccc2oc(-c3ccncc3)nc2c1	i
65	CCOC(=O)c1c(NC(=O)C2CC2)sc(C(=O)Nc2cccc(Cl)c2C)c1C	i
66	C=CCNC(=O)CN(c1ccc(OC)c(OC)c1)S(=O)(=O)c1ccc(C)cc1	i
67	Cc1nc2ccccc2n1CC(=O)NC1CCCC1	i
68	COc1cccc(Oc2nc3c(c(=O)n(Cc4ccccc4F)c(=O)n3C)n2C)c1	i
69	COC(=O)c1ccc(C(=O)OC)c(NC(=O)CSCc2ccc(OC)cc2)c1	i
70	COc1ccc([N+](=O)[O-])cc1NC(=S)NCCc1ccccc1	5%
71	COc1ccc(-c2cc(C(=O)N3CCN(c4ccccc4OC)CC3)c3ccccc3n2)cc1	u
72	COc1ccc(CN2C(=O)C(O)(CC(=O)c3ccc(Cl)s3)c3ccccc32)cc1OC (stereo not drawn)	i
73	CCn1c(SCCOc2ccc(C)cc2)nc2ccccc21	u
74	C=CCn1c(SCCC(=O)Nc2ccc(F)cc2)nc2scc(-c3ccccc3)c2c1=O	5%
75	COc1cc(Br)cc2cc(C(=O)N3CCCCC3C)c(=O)oc12 (stereo not drawn)	i
76	O=C(CSc1nc2ncccc2[nH]1)NC1CCCCC1	2%
77	CC(=O)c1ccc(-n2c(=O)c3ccccc3c3ccccc3c2=O)cc1	25%
78	CCc1ccc(NC(=O)c2ccccc2NS(C)(=O)=O)cc1	i
79	COc1ccc(-c2csc(Nc3cc(C)ccn3)n2)cc1C	u
80	NCCc1c[nH]c2ccc(OCC(=O)O)cc12	i

# Further results follow:
item	SMILES	Mtb H37Rv
81	O=C(O)c1cccc(COc2ccc3ccccc3c2)c1	i
82	COC(=O)c1ccc(NC(=O)CSc2nnc(NC(=O)c3ccccc3Cl)s2)cc1	1%
83	CC(C)(C)c1ccc(OCc2nnc(-c3ccccc3)o2)cc1	i
84	COc1ccc(CCNC(=S)NC23CC4CC(CC(C4)C2)C3)cc1	7.8µg/mL*
85	O=C(CN(c1ccc2c(c1)OCCO2)S(=O)(=O)c1ccccc1)NCC1CCCO1 (stereo not drawn)	i
86	COc1ccc(OC)c(C2C(C#N)=C(N)OC(c3ccccc3)=C2C#N)c1 (stereo not drawn)	i
87	CCc1ccc(NC(=O)c2ccco2)cc1	14%
88	CC1=C(C(=O)Nc2ccccc2Cl)C(c2ccccc2C)NC(=S)N1 (stereo not drawn)	i
89	CC(C)(C)NC(=O)Cn1cc(C(=O)c2cccs2)c2ccccc21	i
90	CCCn1c2ccccc2c2nnc(SCC(=O)Nc3nnc(CC(=O)OCC)s3)nc21	i
91	COc1ccc(N2CCN(C(=O)CC34CC5CC(CC(C5)C3)C4)CC2)cc1	i
92	Cc1ccc(Nc2nc(N)nc(CSc3nc(C)cc(C)n3)n2)cc1	i
93	O=C(Cc1ccccc1)Oc1ccc(N2C(=O)CCC2=O)cc1	i
94	COc1ccc(-n2c(C)n[nH]c2=S)cc1	i
95	Cc1ccc(SC(C)C(=O)NC2CC3CCC2C3)cc1 (stereo not drawn)	i
96	CS(=O)(=O)N(Cc1ccc(Cl)cc1)c1ccc(C(=O)NCc2ccncc2)cc1	i
97	C=CCn1c(SCC(=O)N2CCCCCC2)nc2sc3c(c2c1=O)CCC3	8%
98	N=C(N)SCc1cccc2ccccc12	5%
99	C=CCNC(=O)c1ccccc1NC(=O)c1ccc(Br)cc1	2%
100	O=C(NN1C(=O)/C(=C/c2ccc(Br)cc2)SC1=S)c1ccncc1	i

# Retrieved by structure from above, 2 records:
item	SMILES	Mtb H37Rv
92	Cc1ccc(Nc2nc(N)nc(CSc3nc(C)cc(C)n3)n2)cc1	i
98	N=C(N)SCc1cccc2ccccc12	5%

# Next section:
item	SMILES	Mtb H37Rv
101	Cc1cc(Cl)ccc1OCC(=O)Nc1ccc(Cl)cc1C(F)(F)F	5%
102	C=CCn1c(SCC(=O)Nc2ccc([N+](=O)[O-])cc2)nc2sc(C)c(C)c2c1=O	i
103	CC1=C(C(=O)Nc2ccc(C)cc2C)C(c2ccc(F)cc2)NC(=S)N1C (stereo not drawn)	i
104	COc1ccc(C(=O)NCc2occc2C(=O)O)cc1	i
105	CCCCC(CC)C(=O)Nc1ccc(Nc2ccccc2)cc1 (stereo not drawn)	3%
106	Cc1cc(C)c(OCCCNC2CCCC2)c(Br)c1	i
107	CCNC(=O)c1ccc(I)cc1	i
108	O=CN1CCN(C(=O)c2ccc(Br)o2)CC1	i
109	O=C(Nc1cccc2ncccc12)c1cccs1	i
110	CCOc1ccc(OCCOCCN2CCCC2)cc1	i
111	Cc1cc(OCC(=O)O/N=C(\N)Cc2cccc3ccccc23)cc(C)c1Br	1%
112	CCOc1ccc([N+](=O)[O-])cc1C1NC(=O)NC(C)=C1C(C)=O (stereo not drawn)	i
113	O=C(NCC1CCCO1)c1ccc(CN2CCC(Cc3ccccc3)CC2)cc1 (stereo not drawn)	i
114	CC1=C(C(=O)OCC2CCCO2)C(c2cccs2)C2=C(CC(c3ccco3)CC2=O)N1 (stereo not drawn)	i
115	Cc1c(NC(=O)Nc2cccc3c2CCCC3)n(C)c(=O)n1-c1ccccc1	i
116	Cc1ccccc1OCC(O)CN1CCN(C)CC1 (stereo not drawn)	i
117	CCc1nc2ccccc2n1Cc1cc(C)ccc1C	i
118	O=C(Nc1ccc2c(c1)OCO2)c1nn2cccnc2c1Cl	i
119	Cc1ccc(Cl)cc1NC(=O)CC(C(=O)O)N(C)C (stereo not drawn)	i
120	O=C(CN1CCN(C(=O)N2CCCCC2)CC1)Nc1ccc(F)cc1	i

# From entry 90 up to 92, as listed above:
item	SMILES	Mtb H37Rv
90	CCCn1c2ccccc2c2nnc(SCC(=O)Nc3nnc(CC(=O)OCC)s3)nc21	i
91	COc1ccc(N2CCN(C(=O)CC34CC5CC(CC(C5)C3)C4)CC2)cc1	i
92	Cc1ccc(Nc2nc(N)nc(CSc3nc(C)cc(C)n3)n2)cc1	i

# Next section
item	SMILES	Mtb H37Rv
121	CC(C)OC(=O)c1ccc(NC(=O)CN2C(=O)c3ccccc3C2=O)cc1	i
122	Cc1occc1C(=O)NNC(=O)Nc1cccc(Cl)c1Cl	2%
123	Cc1ccc(N2CC(C(=O)Nc3ncc([N+](=O)[O-])s3)CC2=O)cc1 (stereo not drawn)	28µg/mL*
124	N/C(=N\c1nc(CSc2ccc(Cl)cc2)cc(=O)[nH]1)Nc1ccccc1C(F)(F)F	1%
125	Cc1cc2c(cc1C)NC(c1ccccc1[N+](=O)[O-])C1=C(CC(C)(C)CC1=O)N2 (stereo not drawn)	i
126	Cc1cccc(-c2noc(COc3ccccc3)n2)c1	1%
127	CN(C)S(=O)(=O)c1ccc(NC(=O)c2ccc(Cl)cc2)cc1	4%
128	Fc1ccc(NC(=S)N2CCN(Cc3ccccc3)CC2)cc1	i
129	O=C(c1ccc(-c2ccccc2)cc1)N1CCC(c2ccccc2)C1 (stereo not drawn)	4%
130	CC12CCC(C(=O)O)(OC1=O)C2(C)C (stereo not drawn)	i
131	O=C(Cc1ccc([N+](=O)[O-])cc1)NCc1ccc(Cl)c(Cl)c1	7%
132	CCN(CC)CCOc1ccc(Cl)cc1C	i
133	O=S(=O)(c1ccc(-c2csc(-c3ccccc3)n2)cc1)N1CCCCCC1	i
134	Cc1cc(Cl)ccc1OC(C)C(=O)Nc1ccc(Nc2ccccc2)cc1 (stereo not drawn)	i
135	CN1CCN(c2ccc(NC(=S)NC(=O)c3cc4ccccc4o3)cc2)CC1	11µg/mL*
136	Cc1ccc(C(=O)N(Cc2ccc(N(C)C)cc2)C2CCS(=O)(=O)C2)cc1 (stereo not drawn)	4%

# Values by screen from the list:
# Mtb H37Rv for nos. 128–135: i, 4%, i, 7%, i, i, i, 11µg/mL*

# This is a subset, so the mix of outcomes need not match the whole.
